A3A deaminase = inhibitors of human APOBEC3A DNA deaminase | P31941 | recombinant A3A, FAM/TAMRA ssDNA deamination fluorescence | inhibition, % at 20 µM | 330,000 tested, 0.41% active | AID 493011;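 active means at least 40% inhibition at 20 µM here, with at most 30% in a related deaminase screen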;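 further: plate controls were A3A with DMSO for no effect and wells lacking A3A enzyme for full effect; some results filed as inactive read as strong as hits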
EBI2 block = EBI2 (human) antagonism; EBI2 beta-arrestin recruitment, luminescence, 7a,25-OHC stimulated; 360,000 tested, 0.81% active; inhibition, % at 5 µM; P32249; AID 651636; in the data active means inhibition above about 38%;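 further: enzyme fragment complementation signal reports receptor beta-arrestin coupling in cells; 0% = agonist plus DMSO wells and 100% = wells without agonist; some results beyond the cut were filed as inactive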
Gli-Sufu block = blocks Gli-Sufu signaling in a luciferase reporter | Sufu-KO-LIGHT fibroblasts, Gli luciferase reporter luminescence | inhibition, % at 5 µM | 340,000 tested, 0.74% active | AID 588413;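 active means inhibition above about 55%, limit read from the data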;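 further: 0% = DMSO-treated cells and 100% = wells with medium but no cells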
GRIN3A LBD mod = modulates the human NR3A ligand-binding domain; NR3A LBD differential scanning fluorimetry, Tm shift; 0% = protein alone, 100% = glycine-bound protein; Tm shift relative to glycine control, % at 25 µM; 340,000 tested, 2.5% active;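 active means melting temperature shift of at least 10% of the positive control shift, at one fixed dose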
MPTP block = blocks calcium-induced mitochondrial swelling. isolated mouse mitochondria, Ca2+ swelling absorbance, 30 min. inhibition, % at 10 µM. 360,000 tested, 1.4% active. AID 602449;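 active means inhibition of 50% or more, scaled per plate between neutral and stimulator controls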;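 further: 0% = DMSO wells given calcium and 100% = 1 mM EGTA wells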
A3G deaminase = blocks human APOBEC3G single-stranded DNA deamination; AID 493012; 330,000 tested, 0.28% active; inhibition, % at 20 µM; recombinant A3G, ssDNA deamination FAM/TAMRA fluorescence; Q9HC16;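 active means inhibition of at least 40% at 20 µM, with no more than 30% in the related APOBEC3A deaminase screen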;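 further: plate controls were DMSO wells with A3G for no effect and wells lacking A3G enzyme for full effect; some compounds called inactive have numbers as strong as hits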
Target sequence (Q9HC16 whole entry, looked up): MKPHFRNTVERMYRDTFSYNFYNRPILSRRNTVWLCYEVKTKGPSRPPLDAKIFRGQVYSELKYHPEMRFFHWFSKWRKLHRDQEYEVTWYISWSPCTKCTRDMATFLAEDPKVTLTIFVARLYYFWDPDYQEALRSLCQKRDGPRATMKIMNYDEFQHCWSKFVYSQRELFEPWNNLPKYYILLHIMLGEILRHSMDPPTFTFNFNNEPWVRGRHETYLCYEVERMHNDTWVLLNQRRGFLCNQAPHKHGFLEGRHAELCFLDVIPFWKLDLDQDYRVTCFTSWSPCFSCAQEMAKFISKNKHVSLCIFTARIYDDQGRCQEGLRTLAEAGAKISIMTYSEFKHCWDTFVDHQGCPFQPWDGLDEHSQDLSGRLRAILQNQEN
The depositor's hits bear a star. These rows are one share of the data, so the mix of outcomes need not match the whole.

SMILES	A3A deaminase	EBI2 block	Gli-Sufu block	GRIN3A LBD mod	MPTP block	A3G deaminase
O=C(Nc1ccc([N+](=O)[O-])c(NC(=O)C2CCCO2)c1)C1CCCO1 (stereo not given)	-1.4	-4.6	2.0	-3.2	-0.9	-10.5
CC1(C)Cc2ccccc2C(/C(=N/O)C(N)=O)=N1	-0.2	-8.0	29.4	-16.7	-1.1	-3.5
COc1cc(OC)cc(C(=O)N[C@H](C(=O)OCC(=O)c2ccc3c(c2)NC(=O)CO3)C(C)C)c1	3.9	-7.0	7.6	0.3	2.6	1.0
Cn1nccc1C(=O)NC(=S)Nc1sc2c(c1C#N)CCCCC2	-5.2	0.5	-37.4	1.0	2.5	-4.5
O=CC1=C(N2CCOCC2)/C(=C/c2ccc(Cl)cc2)CC1	-4.5	2.0	-1.6	-1.0	2.0	-9.1

Single values from the list.
O=CC1=C(N2CCOCC2)/C(=C/c2ccc(Cl)cc2)CC1 in A3G deaminase is listed with -9.1
O=C(Nc1ccc([N+](=O)[O-])c(NC(=O)C2CCCO2)c1)C1CCCO1 (stereo not given) in MPTP block is listed with -0.9

An excerpt from above, reduced to Gli-Sufu block and A3G deaminase.
| canonical_smiles | Gli-Sufu block | A3G deaminase |
| --- | --- | --- |
| O=CC1=C(N2CCOCC2)/C(=C/c2ccc(Cl)cc2)CC1 | -1.6 | -9.1 |
| COc1cc(OC)cc(C(=O)N[C@H](C(=O)OCC(=O)c2ccc3c(c2)NC(=O)CO3)C(C)C)c1 | 7.6 | 1.0 |

Single records, from the list above. Order of screens: A3A deaminase, EBI2 block, Gli-Sufu block, GRIN3A LBD mod, MPTP block, A3G deaminase
`O=CC1=C(N2CCOCC2)/C(=C/c2ccc(Cl)cc2)CC1` as listed: -4.5, 2.0, -1.6, -1.0, 2.0, -9.1
`COc1cc(OC)cc(C(=O)N[C@H](C(=O)OCC(=O)c2ccc3c(c2)NC(=O)CO3)C(C)C)c1` as listed: 3.9, -7.0, 7.6, 0.3, 2.6, 1.0
